# Screens deposited in PubChem by Broad Institute.
# FGF22 binding = shifts melting point of recombinant human FGF22 | AID 651658 | calls only at 9.99 µM | 1.5% of 340,000 active | Q9HCT0 | recombinant FGF22 thermal shift, SYPRO orange fluorescence; percent of sucrose octasulfate shift, DMSO zero;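 active = melting point raised past a set limit in the mean and every replicate; inconclusive = no clear call; three in four hits are not shown here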
# Target sequence (Q9HCT0 whole entry, looked up): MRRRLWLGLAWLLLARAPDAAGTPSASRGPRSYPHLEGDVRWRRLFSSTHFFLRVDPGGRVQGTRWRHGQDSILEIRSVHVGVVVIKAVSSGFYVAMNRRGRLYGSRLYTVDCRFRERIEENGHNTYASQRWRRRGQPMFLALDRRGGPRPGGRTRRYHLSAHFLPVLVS
# T cruzi inh = blocks replication of Trypanosoma cruzi. inhibition, % (test concentration not listed). AID 1885. 1.4% of 300,000 active. T. cruzi beta-gal in NIH3T3, luminescence, 90 h;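 active = mean inhibition across valid replicates above about 55%, limit read from the data; inconclusive = mean below that limit but half or more replicates reach it; inactive = mean below it, under half of replicates reach it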;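 also: signal also drops with host cell toxicity which is not excluded here; 0% = plate median of DMSO wells and 100% = zero luminescence signal; higher percent means less beta-gal luminescence so fewer parasites; stock transfer was 50 nL into about 50 µL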
# Beta apoptosis = blocks beta cell apoptosis | INS-1E cytokine-induced death, ATP luminescence, 48 h; percent of positive-control rescue, neutral wells zero | protection from apoptosis, % (concentration not given with the values) | 0.8% of 300,000 active;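 active = all replicates at 75% or more, or half of them and the mean; inconclusive = half reach 75% but not the mean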;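 also: 0% = cytokine-treated negative control wells and 100% = positive control rescue; higher means more ATP so stronger rescue from cytokine killing; wells of about 40 µL received 100 nL stock; the first replicate is given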
# ALR H2O2 inh = inhibitors of human sulfhydryl oxidase ALR; inhibition, % (concentration not given with the values); P55789; 3.8% of 290,000 active; purified ALR, DTT oxidation, H2O2 HRP-luminol luminescence;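 active = mean and each replicate at 75% or more; inconclusive = only one of the two met; inactive = neither met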;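 also: stock transfer was 7.5 nL into about 7.5 µL; 0% = neutral wells and 100% = wells with inactivated enzyme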
# Target sequence (P55789 whole entry, looked up): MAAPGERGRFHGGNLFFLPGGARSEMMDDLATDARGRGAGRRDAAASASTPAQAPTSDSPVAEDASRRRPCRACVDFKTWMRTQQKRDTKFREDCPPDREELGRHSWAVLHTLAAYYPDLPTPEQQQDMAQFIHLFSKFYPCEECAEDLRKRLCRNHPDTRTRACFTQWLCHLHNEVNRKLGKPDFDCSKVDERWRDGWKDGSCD
# Calb FLC = affects C. albicans growth with fluconazole; C. albicans CaCi-2 (fluconazole-resistant clinical isolate) + fluconazole, Alamar Blue growth, 48 h; 0.57% of 300,000 active; growth inhibition, % (no concentration beside the values); AID 1979;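 active = most replicates above 75%; inconclusive = exactly half above 75%; inactive = most below 75%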;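 also: all wells also contain fluconazole at 8 µg/ml as a sub-toxic cotreatment; 0% = median of DMSO wells and 100% = median of geldanamycin control wells; wells of about 8 µL received 7.5 nL stock; the first replicate is given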
# RanGTP-Imp inh = inhibitors of RanGTP-importin-beta interaction, primary screen, biochemical, FRET, CFP-Ran, YFP-importin-beta, homogeneous. cell-free CFP-Ran/YFP-importin-beta FRET ratio. inhibition, % (test concentration not listed). 1.1% of 300,000 active. AID 2216;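 active = most replicates above 15%; inconclusive = exactly half above 15%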;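 also: 0% = DMSO wells and 100% = Ran loaded with GDP instead of GTP; wells of about 40 µL received 100 nL stock; the first replicate is given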
# MLL AF4-AF9 inh = inhibitors of human MLL-AF4/AF9 interaction; P42568; AlphaScreen, biotin-AF4 peptide binding to FLAG-AF9; inhibition, % at 10 µM; 0.47% of 350,000 active;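 active = every replicate reaching a set inhibition limit, whatever the replicate mean, cut at about 25% in these data; inconclusive = mean inhibition reaches that limit but some replicates miss it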;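 also: 0% = plate neutral control median and 100% = total signal loss; the record names both 10 and 1 µM as test concentration; the first replicate is given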
# Target sequence (P42568 whole entry, looked up): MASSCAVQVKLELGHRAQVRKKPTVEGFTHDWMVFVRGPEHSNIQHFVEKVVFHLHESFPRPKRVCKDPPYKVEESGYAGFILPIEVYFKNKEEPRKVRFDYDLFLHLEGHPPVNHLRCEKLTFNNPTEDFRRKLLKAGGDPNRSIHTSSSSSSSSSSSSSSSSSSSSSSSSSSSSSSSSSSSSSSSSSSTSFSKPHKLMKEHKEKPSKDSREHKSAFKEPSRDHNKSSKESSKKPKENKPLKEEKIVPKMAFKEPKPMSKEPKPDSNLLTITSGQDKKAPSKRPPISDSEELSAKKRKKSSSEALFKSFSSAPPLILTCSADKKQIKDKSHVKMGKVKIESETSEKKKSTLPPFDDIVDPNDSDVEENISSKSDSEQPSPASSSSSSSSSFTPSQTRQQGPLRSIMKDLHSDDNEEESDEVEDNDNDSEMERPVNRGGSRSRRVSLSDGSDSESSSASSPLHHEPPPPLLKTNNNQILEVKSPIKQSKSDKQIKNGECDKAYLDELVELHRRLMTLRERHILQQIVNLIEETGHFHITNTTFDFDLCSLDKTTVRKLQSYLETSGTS
# Ecoli rRNA inh = inhibits bacterial ribosomal RNA function over humanized ribosomes | 1.6% of 350,000 active | E. coli WT GFP vs humanized-ribosome RFP mutants, fluorescence, 24 h; stronger effect = lower value; DMSO median 0, no signal -100 | GFP signal change (wild-type ribosome), % (concentration not given with the values);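 active = significant combined selectivity score with lowered wild-type GFP, culture density cut under 30%, mutant RFP and density less affected; inactive = any of these conditions unmet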; also: one replicate is shown; some compounds called inactive have numbers as strong as hits
# Ecoli rRNA inh OD600 = further read-out of Ecoli rRNA inh, marked with its call; OD600 change, %; measured here: OD600 growth;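 optical density of the mix in the first replicate; 0 = DMSO median and -100 = no signal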
# Ecoli rRNA inh RFP = also measured in Ecoli rRNA inh; calls as there; RFP signal change, %; measured here: RFP humanized mutant strains;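 first replicate; 0 = DMSO median and -100 = no signal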
# An asterisk follows results filed as active; i = inactive; ? = inconclusive; nt = no result given; & = joins results of further samples. Some of the compounds tested. The share of hits here may be higher or lower than overall.
SMILES,FGF22 binding,T cruzi inh,Beta apoptosis,ALR H2O2 inh,Calb FLC,RanGTP-Imp inh,MLL AF4-AF9 inh,Ecoli rRNA inh,Ecoli rRNA inh OD600,Ecoli rRNA inh RFP
Cc1ccc(CNc2oc(C)nc2C#N)cc1,nt,-9,-3,nt,-4,-0.4,nt,nt,nt,nt
CCc1nc2ccccc2c(=O)n1NCCc1ccccc1,nt,11,-6,-3,6,3.0,nt,nt,nt,nt
COc1ccc2oc(C(=O)NCCC(C)C)c(C)c2c1,i,19,-5,nt,39,-2.1,-0.5,-6,-1,0.4
CC(C)CC1(C(=O)NCc2cc(F)cc(C(F)(F)F)c2)C=CCN1C(=O)c1ccccc1 (centres undefined),i,6,-2,-15,5,2.9,-6.7,5,0,1.2
Cc1cccnc1NC(=O)c1ccc(OCc2c(C)noc2C)cc1,i,-7,1,-8,-4,2.9,0.0,9,8,-0.3
C=CCNC(=S)NNC(=O)C(CCC(C)C)CC(C)(C)O (centres undefined),nt,1,-1,nt,1,1.7,nt,nt,nt,nt
Cc1cc(-n2c(C)cc(C(=O)CN3C(=O)NC4(CCCCC4)C3=O)c2C)no1,i,19,3,-1,-10,-0.7,1.7,5,13,4.6
CCCCc1ccc(NC(=O)CN2C(=O)C3CCCCC3C2=O)cc1 (centres undefined),i,6,-8,4,-9,6.1,-0.7,0,7,-0.9
CCOCCCNC(=S)N1CCCN(c2nc3cc(C)cc(C)c3cc2C#N)CC1,i,10,3,-6,-15,0.8,-4.8,-1,-6,5.6
Brc1ccc(-c2csc(/N=C/N3CCOCC3)n2)cc1,nt,4,-5,64,3,2.8,nt,nt,nt,nt
O=C(N[C@@H](Cc1ccccc1)C(=O)OCc1ccccc1)c1nc[nH]c1C(=O)NC1CCNCC1,i,-13,4,63,8,1.2,12,-21*,-8.4*,-3.2*
Cc1ccc(CSc2nnc(CS(=O)Cc3ccc(Cl)cc3Cl)n2C)cc1 (centres undefined),i,20,1,-12,-2,7.0,5.5,-2,-4,-0.7
CC1(c2nnc(-c3cccc(Cl)c3)o2)CC(c2ccc(Br)cc2)=NO1 (centres undefined),nt,-13,-4,-13,0,4.7,nt,nt,nt,nt
CCCCn1c(N)c(N(CC)C(=O)c2cc(S(=O)(=O)N3CCN(CC)CC3)ccc2Cl)c(=O)[nH]c1=O,i,-23,-11,1,7,2.0,-0.5,3,4,-0.8
O=C(Nc1cccnc1Cl)c1cc(-c2ccccc2O)on1,i,5,4,nt,3,1.7,-4.3,3,1,3.1
O=C(NCCCN1CCCC1=O)c1ccc(NS(=O)(=O)c2cccc([N+](=O)[O-])c2)cc1,i,-11,3,-6,1,-0.3,-2.8,-2,6,-3.4
CCOC(=O)/C=C/C(=O)OCC(=O)Nc1ccc(C)cc1,i,-15,-9,11,-7,0.1,-1.6,0,2,0.9
O=C(c1oc2ccccc2c1CSCc1ccccc1)N1CCN(c2ncccn2)CC1,nt,18,12,-9,6,0.3,nt,nt,nt,nt
CN(C(=O)c1cccc(NC(=O)c2ccco2)c1)c1ccccc1,i,-12,-20,nt,-10,-3.1,-2.2,0,-1,0.5
CCOC(=O)/C=C/C(=O)Nc1ccc(S(=O)(=O)N2CCCCCC2)cc1,i,-15,-12,nt,-18,0.2,-1.1,-2,-4,-0.2
CC1CCN(c2ccc3nnc(CCC(=O)NCC(C)c4ccccc4)n3n2)CC1 (centres undefined),i,5,-1,0,-10,-13,1.6,-18,-14,1.7
COCCN(C(=O)CNC(=O)c1ccco1)C(C(=O)NC1CCCC1)c1ccc(OC)c(OC)c1 (centres undefined),i,4,2,-7,5,0.5,0.8,9,14,13
O=C(Cn1c(SCC(=O)N2CCc3ccccc3C2)nc2ccccc21)NC1CCCC1,nt,4,-2,-6,1,7.9,nt,nt,nt,nt
COc1ccc(N(C(=O)c2snc(C(N)=O)c2N)C(C(=O)NCc2ccc(F)cc2)c2ccc(O)cc2)cc1 (centres undefined),i,-8,13,nt,12,3.5,-2.3,-3,-5,1.9
OCCC1CCCCN1CC(O)COCc1ccc(Cl)cc1 (centres undefined),i,6,0,nt,-1,?,1.3,9,13,-2.3

# (next part)
SMILES,FGF22 binding,T cruzi inh,Beta apoptosis,ALR H2O2 inh,Calb FLC,RanGTP-Imp inh,MLL AF4-AF9 inh,Ecoli rRNA inh,Ecoli rRNA inh OD600,Ecoli rRNA inh RFP
Cc1cccc(C)c1OCC(=O)Nc1cccc(-c2nnc(-c3ccccc3)o2)c1,nt,26,0,-38,-10,1.4,nt,nt,nt,nt
C=CCn1c(SCC(=O)NCCCO)nc2sc3c(c2c1=O)CCC3,i,5,-8,-4,2,-2.1,0.1,10,4,5.4
CC1C(=O)C(C)(C)C(=O)OC1c1ccc([N+](=O)[O-])cc1 (centres undefined),i,-4,-5,nt,0,1.6,0.2,7,7,-1.5
CCn1c2c(c3cc(Cl)ccc31)CCCC2=O,i,2,-2,-44,-1,0.9,5.6,-30,-33,-12
Cc1cc(N2CCN(c3ccccc3)CC2)nc(NCc2ccccc2)n1,nt,55*,36,45,nt,?,nt,-8,-6,4.4
CCN1CCN(CCNC(=O)c2ccc(/C=C3/Sc4ccccc4N(Cc4ccccc4C)C3=O)cc2)CC1,i,33,nt,nt,?,4.9,21,-51,-79,-27
COCCCN1C(=O)C(=O)/C(=C(/O)c2ccc(C)cc2)C1/C=C/c1ccccc1 (centres undefined),i,11,-4,1,31,3.6,-2.5,11,5,-1.8
COc1ccc(NC(=O)CN(C)C(=O)CSCc2ccc(C)cc2)cc1,i,-4,0,-5,-2,-3.8,-9.3,0,2,-2.7
C[C@@H]1CN([C@H](C)CO)C(=O)Cc2cc(NC(=O)CCC(F)(F)F)ccc2O[C@@H]1CN(C)C(=O)Nc1ccccc1,i,nt,-6,2,nt,nt,-3.1,-2&5,5&6,-3.3&0.6
CC1CCCC(NC(=O)c2cccs2)C1C (centres undefined),i,nt,4,0,nt,nt,0.7,-1,-4,-5.8
CC(=O)c1ccc(-c2nnc(CCC(=O)N3CCCC(C(=O)CC(C)C)C3)o2)s1 (centres undefined),i,8,-4,1,0,3.1,-7.3,-2,-2,1.9
CCOC(=O)c1sc2ncn(/N=C/c3cccnc3)c(=O)c2c1C,nt,-9,-2,2,6,6.9,nt,nt,nt,nt
COc1cccc(C2=NO[C@@H]3C(=O)N(Cc4ccccc4)C(=O)[C@H]23)c1OC,nt,3,2,nt,0,1.6,nt,nt,nt,nt
CN(C)c1ccc(C(=O)c2ccc(N(C)C)c3ccccc23)cc1,nt,47,44,-17,-4,-0.2,nt,nt,nt,nt
COc1ccccc1C(=O)OCc1nc(N)nc(Nc2ccccc2C)n1,i,-1,-1,-5,-23,?,0.4,1,-9,-0.8
CC1CC(C)CN(C(=O)CNC(=O)c2ccc3ccccc3c2)C1 (centres undefined),i,-4,1,-3,-4,1.8,-6.7,-29,-29,-6.7
COc1ccc(S(=O)(=O)NCC2CCCN(C(=O)c3ccco3)C2)cc1 (centres undefined),i,4,-3,-4,3,2.8,0.2,1,-4,-0.1
OC(C#CCN1CCCCC1)c1ccccc1 (centres undefined),nt,-21,-10,1,1,-6.1,nt,nt,nt,nt
O=C(CCSc1nc(-c2ccco2)cc(C(F)(F)F)n1)Nc1ccc2c(c1)OCO2,nt,0,-1,-1,-6,-2.3,nt,nt,nt,nt
Oc1sc(C=Nc2ccc(F)cc2)c2ccccc12,nt,-5,0,57,11,-5.4,nt,nt,nt,nt
COc1ccc2c(c1)C1NC(=S)NC(C)(O2)C1C(=O)Nc1ccc(C)cc1C (centres undefined),nt,4,0,-6,3,-1.2,nt,nt,nt,nt
CC1=CC(C)(C)NC(=S)N1c1cc(C)cc(C)c1,i,-15,-5,-2,-3,4.2,-0.3,11,-4,1.2
FC(F)(F)c1ccc2c(c1)NCC1CCCN21 (centres undefined),i,-10,2,98*,-6,4.2,4.4,8,21,15
CCN(CC)S(=O)(=O)c1ccc(/C=C/C(=O)Nc2ccc(N3CCOCC3)cc2)cc1,i,35,2,5,0,-2.7,2.7,-18,-8,11
Brc1ccc(/C=N/Nc2nncc(-c3ccccc3)n2)o1,nt,20,-2,-1,-6,-0.5,-2.6,-1,2,1.0

# Next section:
SMILES,FGF22 binding,T cruzi inh,Beta apoptosis,ALR H2O2 inh,Calb FLC,RanGTP-Imp inh,MLL AF4-AF9 inh,Ecoli rRNA inh,Ecoli rRNA inh OD600,Ecoli rRNA inh RFP
Cc1cccc(C)c1NC(=O)C1(N(Cc2ccco2)C(=O)CC2NC(=O)NC2=O)CCCC1 (centres undefined),nt,3,-7,-5,-9,1.3,nt,nt,nt,nt
COCCSc1nnc(NC(=O)C2CC(=O)N(c3ccc(Cl)cc3)C2)s1 (centres undefined),i,-15,-1,0,3,2.6,-2.6,-7,-9,1.6
O=C(CN1CCN(Cc2ccccc2)CC1)N/N=C/c1c[nH]c2ccccc12,nt,6,-1,-2,-13,-0.1,nt,nt,nt,nt
Cc1ccc(-c2noc(CCC(=O)NCCCN3CCN(c4ccc(F)cc4)CC3)n2)cc1,nt,10,3,17,-14,-2.2,nt,nt,nt,nt
CCNS(=O)(=O)c1ccc(CCC(=O)N2CCc3ccccc3C2)cc1,i,-19,nt,-10,1,7.0,-4.5,17,-3,3.9
C=CCn1c(=S)[nH]c2cc(-c3ccccc3)sc2c1=O,i,-11,5,-5,5,1.7,0.0,3,6,0.0
COc1ccc(C(=O)/C=C/NCc2ccc(C)cc2)cc1,nt,-5,-1,-4,-9,25*,nt,nt,nt,nt
COc1ccc(S(=O)(=O)N2CCOCC2)cc1NC(=O)CCNC(=O)c1ccc([N+](=O)[O-])cc1,i,nt,22,-3,nt,nt,-3.3,0,23,-2.1
COc1ccc(N=C2SC(CC(=O)Nc3cccc(Cl)c3)C(=O)N2Cc2ccco2)cc1 (centres undefined),nt,40,-6,14,-30,0.4,nt,nt,nt,nt
O=C(Nn1cnnc1)c1ccc(F)cc1,i,-4,1,6,-4,0.9,-2.3,18,15,2.0
COc1ccccc1NC(=O)COc1cccc2c1CCNC2=O,i,49,2,nt,-2,-2.9,-0.7,-2,-2,-0.9
CCn1nc(C(C)C(=O)O)c2ccccc2c1=O (centres undefined),i,-6,1,-7,-3,6.7,-1.0,5,9,0.7
CC(OC(=O)CCC(=O)c1cccs1)C(=O)Nc1ccc(Cl)cn1 (centres undefined),nt,-2,-5,-3,2,2.8,nt,nt,nt,nt
O=C(COC(=O)CNC(=O)c1ccc(Cl)cc1)Nc1ncc(C(F)(F)F)cc1Cl,i,-4,-5,-2,1,0.1,3.5,4,5,3.3
Cc1nonc1OCC(C)(COc1nonc1C)NC(=O)c1ccccc1,nt,-10,3,-5,-2,-1.2,nt,nt,nt,nt
COCCN(C(=O)COC(=O)CCc1ccccc1OC)c1c(N)n(Cc2ccccc2)c(=O)[nH]c1=O,i,-1,nt,-6,4,-1.1,-3.3,2,6,-0.4
CC(NC(=O)C1CCN(C(=O)[C@@H]2Cc3ccccc3CN2)CC1)c1ccccc1 (some centres undefined),i,-2,-2,-1,nt,6.7,-9.2,8,12,1.7
